Source: PubChem
D2 ag: agonists of human D2 dopamine receptor (beta-arrestin); AID 624465; DiscoveRx PathHunter D2 beta-arrestin, luminescence, 90 min; 100% = 57 uM dopamine signal; P14416; activation, % (concentration not given with the values); actives 0.084% (n = 360,000); in the data active = activation above about 40%; inconclusive = about 15% to 40%; inactive = below about 15%; also: compound concentration not given in the record; the text of the record calls up to 30% inactive
Target sequence (P14416 whole entry, looked up): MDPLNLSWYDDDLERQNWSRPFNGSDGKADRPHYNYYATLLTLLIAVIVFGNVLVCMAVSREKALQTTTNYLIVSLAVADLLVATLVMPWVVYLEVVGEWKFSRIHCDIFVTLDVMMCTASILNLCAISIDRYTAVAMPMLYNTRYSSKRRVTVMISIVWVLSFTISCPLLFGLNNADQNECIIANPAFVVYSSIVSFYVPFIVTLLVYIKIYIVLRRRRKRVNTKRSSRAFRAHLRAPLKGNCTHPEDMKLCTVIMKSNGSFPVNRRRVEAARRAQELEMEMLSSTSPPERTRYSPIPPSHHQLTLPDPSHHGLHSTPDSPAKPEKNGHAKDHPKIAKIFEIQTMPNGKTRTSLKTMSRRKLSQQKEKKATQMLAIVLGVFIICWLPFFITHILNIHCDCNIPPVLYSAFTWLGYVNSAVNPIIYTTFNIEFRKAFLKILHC
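Agonist mode: compounds alone added to overnight-plated D2 PathHunter cells for 90 min at 37 C, with 57 uM final dopamine (EC100) defining full response. Beta-arrestin recruitment detected by chemiluminescent reagent, read after 1 h at ambient temperature.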
TRPML1 inh: inhibitors of human TRPML1 channel. Q9GZU1. TRPML1-inducible cells, Ca2+ dye fluorescence, FDSS; hits give low values; inhibition of EC80 agonist-evoked calcium signal. actives 0.02% (n = 390,000). AID 624415. activity change, negative = inhibition, % (test concentration not listed); in the data active means activity change below about -50%; inconclusive means about -30% to -50%; inactive means above about -30%;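 also: stimulus is agonist 54-4 at its EC80 concentration; % is scaled to controls: 0 for no effect and ±100 for the full control effect; compound concentration not given in the record; the text of the record puts the active cut at -80%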
Target sequence (Q9GZU1 whole entry, looked up): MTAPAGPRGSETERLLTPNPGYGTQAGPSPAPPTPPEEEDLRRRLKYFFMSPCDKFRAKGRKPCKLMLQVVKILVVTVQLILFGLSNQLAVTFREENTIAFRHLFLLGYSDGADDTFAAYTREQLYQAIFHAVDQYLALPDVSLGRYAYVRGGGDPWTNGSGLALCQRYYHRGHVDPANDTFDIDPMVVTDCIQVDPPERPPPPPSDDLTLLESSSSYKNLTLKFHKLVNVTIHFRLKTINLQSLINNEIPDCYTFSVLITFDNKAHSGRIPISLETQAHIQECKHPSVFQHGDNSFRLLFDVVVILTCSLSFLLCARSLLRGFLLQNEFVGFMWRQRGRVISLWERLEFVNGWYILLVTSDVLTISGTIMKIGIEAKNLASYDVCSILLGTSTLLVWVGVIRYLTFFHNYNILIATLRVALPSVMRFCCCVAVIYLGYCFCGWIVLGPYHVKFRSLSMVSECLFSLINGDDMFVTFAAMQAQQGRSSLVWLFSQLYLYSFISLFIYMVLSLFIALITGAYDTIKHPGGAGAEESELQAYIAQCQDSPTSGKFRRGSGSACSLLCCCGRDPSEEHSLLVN
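Tet-induced TRPML1-DL cells loaded with Ca8 no-wash calcium dye were read kinetically on FDSS. Compound addition was followed by EC80 agonist 54-4 (4 uM final); inhibition was read over 110 s.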
Six1-Eya2 inh: inhibitors of human Six1/Eya2 interaction; Q15475+O00167; actives 0.56% (n = 360,000); activity change, % (no concentration beside the values); AlphaScreen GST-Six1/His-Eya2 binding, biochemical; hits give low values; control for the full effect not named in the record; AID 651725; in the data active = activity change below about -65%; inconclusive = about -30% to -65%; inactive = above about -30%; also: % is scaled to controls: 0 for no effect and ±100 for the full control effect; compound concentration not given in the record
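GST-Six1 + His-Eya2 (5X stock: 250/500 nM); Tris pH 8.0, 300 mM NaCl, 0.05% BSA, 0.02% Tween 20; GSH donor/Ni acceptor beads; 1 h 37 °C dark; AlphaScreen readout.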
TRPML1 agonist: human mucolipin-1 channel agonism | Q9GZU1 | TRPML1-expressing cells, Ca2+ dye fluorescence, FDSS; host cell line not named in the record; reference of the full effect not given here | activation, % (test concentration not listed) | actives 0.12% (n = 410,000) | AID 624414; in the data active = activation above about 50%; inconclusive = about 30% to 50%; inactive = below about 30%; also: 0% is about no effect; the text of the record puts the active cut at 80%
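TRPML1-DL cells, Tet-induced overnight (~16 h, 37 degrees C), loaded 45-90 min at room temperature with Ca8 no-wash calcium dye plus quencher. FDSS fluorescence: 10 s baseline, compound pin-transfer, 110 s agonist read, then EC80 54-4 (4uM final) and 110 s antagonist read.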
D2 PAM: positive allosteric modulators of human D2 dopamine receptor. P14416. DiscoveRx D2 beta-arrestin cells, luminescence, 90 min; 100% = 57 uM dopamine signal. potentiation, % (concentration not given with the values). actives 0.23% (n = 360,000). AID 624464; active = potentiation of 50% or more; inconclusive = 30% to 50%; inactive = 30% or less;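 also: compound concentration not given in the record; tested on top of an EC20 dose of dopamine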
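D2 cells co-treated with compound plus 50 nM dopamine (EC20) for 90 min at 37 deg C to detect potentiation. Beta-arrestin recruitment was read as enzyme-fragment luminescence after 1 h at ambient temperature. Full response was set by 57 uM dopamine.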
PINK1 modulator: changes PINK1 expression; AID 624263; PINK1 immunofluorescence, high-content cytometry, 24 h; Potency, µM (titrated, usually from 76.6 µM), inactives show top-dose activation (PINK1 increase), hits mostly activators; actives 0.2% (n = 410,000); active = well fitted activation curve with a large enough effect; inconclusive = small, poorly fitted or top-dose-only effect; inactive = flat fitted curve, though single readings scatter; cell line not stated here;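 also: potency is read from the fitted curve at half-maximal effect; % of control where 0% means no effect; nearly all actives have a fitted effect of over 65% in size; a mitochondrial uncoupler was the plate control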
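Stable cell line, 250 cells/well, 12 h attachment; compounds pinned at 5 concentrations, 24 h; CCCP control. Fixed with nuclear dye, primary antibodies 12 h at 10 degrees C, secondary plus cell stain; laser-scanning cytometer read.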
* hit, by the source's call; ? = inconclusive; . = not tested or not shown; [ ] = another dose, or the depositor's remark.

nr | structure | D2 ag | TRPML1 inh | Six1-Eya2 inh | TRPML1 agonist | D2 PAM | PINK1 modulator
1 | COCCCNC(=S)N1CCN(C(=O)C(=O)Nc2ccc(C(=O)OC)cc2)CC1 | -2.7 | -1 | 6 | 0.0 | -22 | 0.0%
2 | O=C(C1CCCN(Cc2ccccc2F)C1)N1CCCCC1 (stereo not given) | -3.6 | -10 | 8 | -1.1 | -12 | 3.0%
3 | N#C/C(=C\Nc1ccc2cn[nH]c2c1)c1nc(-c2ccccc2)cs1 | -1.0 | 0 | -4 | -1.0 | 5 | 2.3%
4 | CCOc1ccccc1NC(=O)C1CCN(S(C)(=O)=O)CC1 | 1.1 | 4 | 1 | 2.9 | 0 | -2.4%
5 | C=CCSc1ccsc1C(=O)O | -3.2 | -6 | -5 | 0.4 | -13 | 2.5%
6 | CCN(C[C@H]1N[C@@](C)(C(=O)OC)[C@H]2C(=O)N(Cc3ccccc3)C(=O)[C@@H]12)C(=O)Nc1ccccc1 | -1.4 | -3 | 0 | -0.6 | -1 | 0.7%
7 | COc1ccc(CNC(=O)Nc2ccccc2)cc1 | -5.1 | . | 3 | . | -8 | 0.0%
8 | Cc1ccc(NC(=O)CSc2nnc(Cc3cccn3C)n2-c2ccc(F)cc2)c(C)c1 | -2.8 | -2 | -10 | 0.8 | -4 | 1.2%
9 | Cc1cccc(-n2nc(C)c3c(C(=O)O)cc(-c4cccs4)nc32)c1 | 1.0 | ? | 1 | 0.1 | -16 | -0.2%
10 | O=C(Cc1ccc(F)cc1)Nc1nc(-c2ccc(F)c(F)c2)cs1 | -2.0 | 8 | 0 | 1.1 | 0 | 9.4%
11 | O=C(NCc1cccs1)C1CCCCC1 | 2.5 | -7 | 2 | -0.6 | -2 | 0.6%[38.3 µM]
12 | COC(=O)C1CN(S(=O)(=O)c2cc(OC)ccc2OC)CCS1 (stereo not given) | -1.8 | 3 | -16 | -0.9 | 1 | -2.8%
13 | Cc1ccc(S(=O)(=O)CCC(=O)OCC(=O)N2c3ccccc3CC2C)cc1 (stereo not given) | -3.0 | 15 | 6 | -0.1 | -8 | 0.2%
14 | CCOCCCNC(=O)C(c1ccc(Cl)cc1)N(Cc1ccc2c(c1)OCO2)C(=O)c1ccccc1O (stereo not given) | . | 14 | . | 0.6 | . | 1.7%
15 | CCCCCC1C(=O)N2C=C(c3ccccc3)c3ccccc3N2C1=O (stereo not given) | -7.9 | -14 | -4 | 0.0 | -23 | -4.5%
16 | Cc1ccc(-c2csc3ncnc(SCc4ccc(C(=O)O)cc4)c23)cc1 | 1.6 | -4 | -17 | 3.2 | 6 | -2.0%
17 | Cc1cc(C)c(C(=O)/C=C/c2ccc3c(c2)OCO3)c(=O)[nH]1 | -3.3 | -2 | 4 | -0.2 | -2 | 3.5%
18 | O=C(CNC(=O)c1cccs1)OCC(=O)c1ccc(Cl)cc1 | -2.5 | 26 | -2 | 0.3 | -15 | -0.1%
19 | CC1(C)CC(=O)C(C=NCCCn2ccnc2)=C(O)C1 | -3.9 | -2 | 3 | -0.8 | 2 | 4.4%[38.3 µM]
20 | CC(C)CN(CC(C)C)C(=O)Cc1coc2ccc3ccccc3c12 | -3.7 | -2 | -5 | 4.5 | 1 | 1.4%

One compound at a time, from the list above. Screens in order: D2 ag, TRPML1 inh, Six1-Eya2 inh, TRPML1 agonist, D2 PAM, PINK1 modulator
Cc1ccc(-c2csc3ncnc(SCc4ccc(C(=O)O)cc4)c23)cc1 reads 1.6, -4, -17, 3.2, 6, -2.0%
O=C(C1CCCN(Cc2ccccc2F)C1)N1CCCCC1 (stereo not given) reads -3.6, -10, 8, -1.1, -12, 3.0%

Sorted by the number under Six1-Eya2 inh (ascending): some entries from above.
item | SMILES | Six1-Eya2 inh
12 | COC(=O)C1CN(S(=O)(=O)c2cc(OC)ccc2OC)CCS1 (stereo not given) | -16
3 | N#C/C(=C\Nc1ccc2cn[nH]c2c1)c1nc(-c2ccccc2)cs1 | -4
19 | CC1(C)CC(=O)C(C=NCCCn2ccnc2)=C(O)C1 | 3
17 | Cc1cc(C)c(C(=O)/C=C/c2ccc3c(c2)OCO3)c(=O)[nH]1 | 4

(more compounds)
nr | structure | D2 ag | TRPML1 inh | Six1-Eya2 inh | TRPML1 agonist | D2 PAM | PINK1 modulator
21 | COc1ccc(/C=C/C(=O)N/C(=C\c2ccco2)C(=O)NCCc2nc3ccccc3[nH]2)cc1 | -3.3 | 14 | -23 | 0.3 | -30 | 1.3%
22 | CCCN1CCC(=O)N([C@H](CSc2ccc(OC)cc2)c2ccccc2)CC1 | 0.9 | 0 | -8 | -1.0 | -10 | -0.7%
23 | O=C(NCc1ccncc1)c1cc(-c2ccc(Cl)cc2)oc1C(F)(F)F | 3.5 | 14 | -1 | 2.2 | -11 | 2.5%
24 | COc1ccc(OC)c(CN2CCC(N3CCC(C(=O)NC4CC4)CC3)CC2)c1 | -3.5 | -11 | 23 | -0.3 | -7 | 0.5%
25 | COc1ccc(C(=O)O/N=C(\N)Cc2ccc([N+](=O)[O-])cc2)c(OC)c1 | 42* | 9 | -10 | 1.4 | ? | -0.8%
26 | CCOC(=O)N/N=C(\c1ccccc1)C(O)c1ccccc1 (stereo not given) | 1.2 | -18 | -9 | 0.8 | 4 | 3.0%
27 | Nc1ccc(C(=O)NC23CC4CC(CC(C4)C2)C3)cc1 | 8.3 | 9 | -17 | -0.5 | -6 | 4.9%
28 | O=C(NCCOCCn1c(=O)oc2ccccc21)Nc1cccc(Cl)c1 | . | 5 | . | -1.0 | . | -0.6%
29 | CSc1ncc(C(=O)Nc2ccc(F)cc2F)c(-c2ccccc2)n1 | . | 44 | . | 1.1 | . | 6.3%
30 | CC(C)CN(C(=O)C1CCCC1)C1CCS(=O)(=O)C1 (stereo not given) | -1.2 | 10 | 16 | 0.8 | -27 | -1.0%
31 | O=C(NC1CCOCC1)C1CCC(=O)N(Cc2cccc(C(F)(F)F)c2)C1 (stereo not given) | -3.0 | -10 | 5 | 0.3 | -9 | -0.9%
32 | CCOc1ccc(C(F)(F)F)cc1NC(C)=O | 0.0 | 1 | -3 | 0.0 | -11 | 2.5%
33 | CC1(C)COC(c2ccccc2Cl)OC1 | 2.7 | 8 | 8 | -0.4 | 5 | 8.9%
34 | CSc1nc2ccc(NS(=O)(=O)c3ccc(CNC(C)=O)cc3)cc2s1 | 10 | 8 | 1 | 3.1 | 0 | 1.0%
35 | Cc1c(O)ccc(C(=O)CN2CCN(c3ccc(F)cc3)CC2)c1O | -5.8 | -8 | -3 | 0.3 | -19 | 1.5%
36 | Nn1cnnc1SCC(=O)N(C1CCCCC1)C1CCCCC1 | 7.7 | -11 | 2 | 1.0 | 6 | -2.3%
37 | CCc1ccccc1NS(=O)(=O)c1ccc2c(c1)CCCN2C(=O)C1CCC1 | . | 5 | . | 1.4 | . | -0.7%
38 | CCOC(=O)Nc1nc(-c2ccccc2)c(C(=O)c2ccccc2)s1 | -3.4 | -8 | -4 | 0.0 | -6 | 7.5%
39 | CN(CC(=O)N1CCN(Cc2ccccc2)CC1)S(=O)(=O)c1ccc(F)cc1 | -4.4 | 17 | 3 | 0.0 | -46 | 0.8%
40 | COc1cccc(C2c3c(oc4ccccc4c3=O)C(=O)N2Cc2ccco2)c1 (stereo not given) | -2.7 | -7 | 5 | -0.2 | -6 | 5.4%

The list goes on.
#	canonical_smiles	D2 ag	TRPML1 inh	Six1-Eya2 inh	TRPML1 agonist	D2 PAM	PINK1 modulator
41	CCn1c(C)nc2cc(S(=O)(=O)Nc3ccc(C)cc3)ccc21	0.1	6	-1	0.0	4	-1.4%
42	Cc1cccc(C(=O)OCC(=O)Nc2c(C)n(C)n(-c3ccccc3)c2=O)c1O	-3.4	-4	5	-0.7	-2	0.1%
43	CCCCNC(=O)CSc1nnc(-c2cccc(S(=O)(=O)N3CCOCC3)c2)o1	-2.2	-6	4	0.6	0	1.9%
44	C[C@@H](C(=O)NCc1ccc(S(C)(=O)=O)cc1)[C@H]1C[C@]1(C)[C@H](NC(=O)OCc1ccccc1)c1ccccc1	0.8	-1	1	-0.6	-13	-0.3%
45	COc1ccc(Cl)cc1NC(=O)c1sc(-n2nc(C)c(Cc3ccccc3)c2C)nc1C	.	-2	.	-0.3	.	0.2%
46	Cc1cccc(C2=N/C(=C\c3cccs3)C(=O)O2)c1	-3.3	-11	2	1.8	-20	5.1%
47	O=C(NNC(=O)c1csc(-c2ccccc2)n1)c1ccccc1	-3.8	13	-4	-0.4	-6	18%
48	Cc1ccc(-n2c(C)cc(C(=O)CSc3nnnn3C)c2C)cc1	-1.9	12	-27	1.1	-4	11%
49	COc1ccc(CNC(=O)c2cc3c(=O)n(Cc4ccco4)ccc3nc2C)c(OC)c1	.	10	.	1.9	.	-0.1%
50	Cc1nnc2c3ccccc3c(-c3ccc(O)cc3)nn12	-1.1	-3	-18	-0.2	6	13%
51	Cc1ccc(NC(=O)CSc2nc3c(c(=O)n(C)c(=O)n3C)n2C)cc1	-0.7	-20	8	-0.3	-2	-3.1%
52	O=C(C[n+]1ccccc1)N/N=C/c1ccc(Cl)c(Cl)c1	0.9	-6	-14	-0.8	-7	1.4%
53	CS(=O)(=O)c1ccc(C(=O)Nc2ccc(N3CCCC3)cc2)c(Cl)c1	-1.0	11	-4	-0.6	-7	0.6%
54	CCOc1ccccc1OCC(=O)OCC(=O)NNC(=O)c1ccc([N+](=O)[O-])cc1	-4.1	9	1	1.3	4	0.7%
55	CC1CCCN(C(=O)C2CCN(CC3CC=CCC3)CC2)C1 (stereo not given)	-1.8	-4	18	-0.6	-33	-0.6%
56	COc1cccc(N2CCC(N3CCN(C)C(CCO)C3)CC2)c1 (stereo not given)	-6.4	4	11	0.3	-26	-1.2%
57	COC(=O)c1ccc(NC(=O)CN2C(=O)CC(C)S(=O)(=O)c3ccccc32)cc1 (stereo not given)	-2.5	25	1	-0.5	-9	-0.4%
58	Cc1cc2oc(=O)cc(C)c2c(=O)o1	-0.1	-6	-1	-0.3	-23	-2.4%
59	O=C(Nc1ccc(Cl)cn1)c1cccc(OCc2ccccc2)c1	6.0	63	14	4.7	-15	5.5%
60	N#Cc1ccc(OCC(=O)NCCCn2ccnc2)cc1	-2.2	-5	?	0.1	-4	-2.3%
61	Cc1ccccc1OCc1n[nH]c(=S)n1-c1ccccc1	0.2	-4	2	-0.4	-11	0.5%
62	O=C1CC(c2cc([N+](=O)[O-])ccc2Cl)c2c(ccc3ccccc23)N1 (stereo not given)	-1.8	-8	-9	2.2	11	6.0%
